# Source: PubChem BioAssay (several laboratories)
# YopH inh – YopH (Yersinia) phosphatase inhibition. 0.16% of 140,000 active. inhibition, %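 (about 10 µM by stock and volumes)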. fluorescence Ex485/Em525;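 active = inhibition of 50% or more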;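 also: controls were vehicle for no effect and minimum signal wells for full effect; inactives centre near -20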
# Arbovirus inh – arbovirus infection inhibition. inhibition, % at 10 µM. 0.37% of 200,000 active. arbovirus infection cell-based antiviral screen. AID 1251;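 active = inhibition from about 30%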;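 also: bluetongue infection of BSR cells; cell survival read as ATP light after 72 h; 0% = infected wells without compound and 100% = uninfected wells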
# Mtb bLac sens – beta-lactam sensitization of Mtb H37Rv; AID 434955; 0.27% of 330,000 active; inhibition, % at 25 µM; M. tuberculosis H37Rv growth with meropenem, percent inhibition; hits of this screen are not shown here;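 active = about 74% or more and at least 40 points above the plate without the antibiotic, then above 30% in a dose series; inconclusive = first-round hits that could not be retested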;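 also: growth measured after seven days incubation then overnight dye step; 0% = bacteria only wells and 100% = bacteria with antibiotic; twin plates without the antibiotic show which effects depend on it; some results filed as inactive read as strong as hits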
# RecA splice inh – inhibitors of M. tuberculosis RecA intein splicing. inhibition, %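 (about 9 µM by stock and volumes)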. cell-free RecA intein splicing, fluorescence. 0.75% of 290,000 active. P9WHJ3; in the data active = inhibition above about 30%; inconclusive = no clear call, values can overlap the other calls;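 also: 0% = vehicle wells and 100% = reference inhibitor control wells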
# Target sequence (P9WHJ3 whole entry, looked up, canonical isoform): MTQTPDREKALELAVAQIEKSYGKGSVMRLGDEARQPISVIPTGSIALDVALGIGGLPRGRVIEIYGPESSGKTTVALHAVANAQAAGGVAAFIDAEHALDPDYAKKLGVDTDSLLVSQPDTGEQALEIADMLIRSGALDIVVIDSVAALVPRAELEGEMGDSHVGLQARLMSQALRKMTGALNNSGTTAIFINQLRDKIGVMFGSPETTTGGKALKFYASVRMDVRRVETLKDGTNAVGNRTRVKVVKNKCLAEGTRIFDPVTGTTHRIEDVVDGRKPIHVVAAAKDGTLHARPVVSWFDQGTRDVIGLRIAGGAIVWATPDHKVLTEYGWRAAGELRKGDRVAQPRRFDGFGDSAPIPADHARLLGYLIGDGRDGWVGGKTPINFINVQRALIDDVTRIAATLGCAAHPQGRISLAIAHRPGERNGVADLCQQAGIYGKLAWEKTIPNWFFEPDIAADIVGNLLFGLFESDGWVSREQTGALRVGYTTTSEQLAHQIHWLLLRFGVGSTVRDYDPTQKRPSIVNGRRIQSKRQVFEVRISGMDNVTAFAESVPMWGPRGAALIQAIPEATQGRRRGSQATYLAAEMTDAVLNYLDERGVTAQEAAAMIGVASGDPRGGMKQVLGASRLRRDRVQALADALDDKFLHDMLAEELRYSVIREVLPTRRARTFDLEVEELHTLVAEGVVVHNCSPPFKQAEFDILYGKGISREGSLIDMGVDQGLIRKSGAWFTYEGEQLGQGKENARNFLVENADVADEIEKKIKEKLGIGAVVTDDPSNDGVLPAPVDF
# Mtb H37Rv – M. tuberculosis H37Rv growth inhibitors, H37Rv strain (AID 1626). M. tuberculosis H37Rv growth inhibition; higher % means a stronger effect. inhibition, % at 10 µM; hits with a dose series show IC50 in µM. 0.95% of 220,000 active;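 active = confirmed in a dose series; inconclusive = inhibition above 80% but not taken into the dose series; inactive = below 80% or under 30% at every dose of the series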;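 also: bacteria incubated seven days before Alamar blue readout; 0% = bacteria only wells and 100% = bacteria with antibiotic wells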
# Arbovirus inh repeat – also measured in Arbovirus inh; calls as there; inhibition, %; measured here: 10K subset replicate screen; many hits read low in the repeat;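 first of two repeat runs on a subset; 0% = infected and 100% = uninfected wells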
# * = called active by the depositor; i = inactive; u = inconclusive; x = no result given; & = joins results of further samples.
SMILES,YopH inh,Arbovirus inh,Mtb bLac sens,RecA splice inh,Mtb H37Rv,others
CCN(CC)CCN1C2=C(C(=O)CC(C)(C)C2)C(c2cccc(F)c2)C2=C1CC(C)(C)CC2=O,x,4,-6,-87,-3%,
CCN(CC)S(=O)(=O)c1ccc(C(=O)N2CCN(C3=NS(=O)(=O)c4ccccc43)CC2)cc1,x,x,-6,1.5,x,
CCCCCCc1nnc(NC(=O)OCC)s1,-29,3,-5,-1.2,7%,
O=C(c1ccco1)N1CCN(c2ccc(Cl)cc2)CC1,-24,-4,-5,1.1,-5%,
COCc1c(C(=O)N2CCN(Cc3ccc(C#N)cc3)CC2)oc2ccccc12,x,x,-4,-0.7,x,
Cc1ccc(N(O)C(=O)OCCNC(=O)Nc2ccccc2)cc1,-14,10,-1,2.5,-4%,
Cc1cc(=O)oc2c(C)c(OCC(=O)NCCCN3CCOCC3)ccc12,x,x,8,-1.4,x,
COc1cc(C(C(=O)NC(C)(C)C)N(C(=O)CNC(=O)c2cccs2)c2ccccc2)cc(OC)c1OC (stereo not given),-41,3,0,1.3,1%,
COc1ccc(NCCNc2ccc(OC)cc2)cc1,-43,1,-2,9.1,93%,Arbovirus inh repeat=-1
CN1CCN(C(=O)COc2ccc(S(=O)(=O)Nc3ccc(F)cc3)cc2)CC1,x,x,7,1.9,x,
Cc1ccc(S(=O)(=O)N(C)C)cc1NC(=O)COC(=O)COc1ccccc1[N+](=O)[O-],x,-3,12,-1.1,2%,
Cc1ccc(NC(=O)c2cccc(NC(=O)/C=C/c3ccco3)c2)cc1C,-3,4,1,12,52%,
S=C(NCCc1ccccc1)NN=C1CCCCCC1,x,2,99,1.7,-9%,
S=C(NCc1ccccc1Cl)Nc1ccccc1Cl,x,4,-2,7.4,9%,
O=C(c1ccccc1)c1ccncc1,-30,5,-1,-1.7,-4%,
CC(=O)Nc1ccccc1C(=O)C(=O)Nc1ccc(F)cc1,-37,-1,1,-7.0,-9%,
CCn1c(SCC(=O)Nc2nc(C)cs2)nnc1-c1ccco1,-20,-5,1,2.2,-2%,
Cc1cc(Oc2ccc(Cl)cc2)nc(-c2ccccn2)n1,x,x,88,x,14µM*,
O=C(NCC1CCCO1)c1ccc(NC(=O)c2ccc([N+](=O)[O-])cc2)cc1 (stereo not given),x,x,-6,-1.8,x,
O=C(CSc1n[nH]c(-c2ccncc2)n1)Nc1ccc(Cl)c(Cl)c1,x,x,25,1.8,x,
Cc1ccc(Cn2c(SCc3cccnc3)nc3c2c(=O)n(C)c(=O)n3C)cc1,-34,-8,1,0.0,7%,
Cc1ccc(NC(=O)c2cc3c(=O)oc4ccccc4c3s2)nc1,-24,-17,4,-1.8,8%,
Cc1ccc2[nH]c(C)c(CCNCc3cccnc3)c2c1,x,x,1,-5.1,x,
O=C(CSc1nc2ccc([N+](=O)[O-])cc2[nH]1)c1ccc(Cl)cc1,-33,11,-1,-5.1,-3%,
N#C/C(=C\c1ccncc1)C(=O)Nc1ccc(C(=O)O)cc1,x,x,8,-0.5,x,
# Next section:
SMILES,YopH inh,Arbovirus inh,Mtb bLac sens,RecA splice inh,Mtb H37Rv,others
COc1ccc(S(=O)(=O)N2CCC(c3nc4ccccc4[nH]3)CC2)cc1,x,x,3,0.1,x,
O=S(=O)(c1ccc(F)cc1)N1CCCc2ccccc21,x,x,4,2.3,x,
O=C1OCC2=C1C(c1ccccc1)CC(=O)N2c1ccc(F)cc1 (stereo not given),x,3,-11,1.9,-1%,
CCOC(=O)[C@@H]1[C@H]2COc3cc(OC)ccc3[C@@H]2N2C(=O)N(c3ccc(Br)cc3)C(=O)[C@]12C,x,x,1,-2.1,5%,
Cc1cc(NCCN(C)C)n2nc(-c3cccs3)cc2n1,-11,-2,2,-2.3,-3%,
CCn1c(CSCc2ccc(C)cc2)n[nH]c1=S,x,x,-5,-0.2,x,
OC[C@H]1O[C@@H](n2cnc3c(NC4CCCC4)ncnc32)[C@H](O)[C@@H]1O,-47,5,0,-0.8,-4%,
O=S(=O)(c1ccc(N2CCC(c3ccc(Cl)cc3)=N2)cc1)N(CCO)CCO,5,-34,-17,i,-2%,
O=C1CSC(c2cccc([N+](=O)[O-])c2)N1CCN1CCCCC1 (stereo not given),x,-2,-4,-1.1,-2%,
CCCC(=O)N1CCc2cc(OC)c(OC)cc2C1c1cc2cc3c(cc2[nH]c1=O)OCO3 (stereo not given),-12,x,5,1.2,3%,
Cc1ccc(S(=O)(=O)O)c(C)c1N1CCCC1=O,19,5,-4,1.1,-3%,
COc1ccc(OC)c(Nc2nc(N)c([N+](=O)[O-])c(N3CCOCC3)n2)c1,x,x,3,2.0,x,
CCc1ccccc1N1CSC2=C(C#N)C(c3ccccc3F)CC(=O)N2C1 (stereo not given),7,12,2,8.8,28%,Arbovirus inh repeat=10
Cc1cc(NC(=O)COC(=O)C2CCC2)no1,x,13,3,-1.8,2%,
O=S(=O)(c1ccccc1)N(Cc1cccc(F)c1)c1ccccc1,x,x,-3,1.6,x,
COc1ccc(C(=O)N2CCCC(Nc3ccc(C(C)C)cc3)C2)c(OC)n1 (stereo not given),x,x,-13,1.2,x,
Cc1noc(C)c1COC(=O)Cc1ccc(Cl)c(Cl)c1,-39,3,-2,3.1,x,
COc1ccc2cc(/C=N/NC(=O)c3ccc(CN(c4cccc(Cl)c4Cl)S(C)(=O)=O)cc3)c(Cl)nc2c1,-19,-28,-4,-0.9,72%,
N#CC(C#N)=C1C=CC=CN1/C(=C\c1ccccc1Cl)C(=O)c1ccccc1,-20,-32,-2,x,-8%,
Cc1ccc(CCNC(=O)c2ccc(NC3=NC4CS(=O)(=O)CC4S3)cc2)cc1 (stereo not given),x,x,-6,0.5,x,
O=C(CNC(=O)c1cccc(F)c1)N/N=C/c1ccc([N+](=O)[O-])s1,x,-15,100,-2.9,u,
CCc1nc2ccccc2n1CC(=O)Nc1cc(C)on1,x,-1,-6,x,6%,
CC(C)c1nc2cc(Cl)ccc2n(Cc2ccccc2)c1=O,x,x,2,10,x,
COc1ccc(C(=O)N/N=C(\Cc2ncc[nH]2)c2ccccc2)cc1,x,-37,82,2.6,u,
C=CCNS(=O)(=O)c1ccc(OC)c(C)c1,-21,-2,-2,0.2,6%,
# (list continues)
SMILES,YopH inh,Arbovirus inh,Mtb bLac sens,RecA splice inh,Mtb H37Rv,others
OCC1OC(n2cnc3ccccc32)CC1O (stereo not given),x,x,-3,0.2,3%,
C/C(=N\O)c1ccc2[nH]ccc2c1,-43,8,13,1.6,-4%,
COc1cc(Cl)c(C)cc1Nc1ncccn1,x,x,6,-2.0,x,
O=C(CC(c1ccccc1)c1ccco1)N1CCCCC1 (stereo not given),x,0,-11,1.6,-1%,
Cc1cccc(NCc2ccccc2O)c1C,-26,11,-8,0.1,-6%,
CC(=O)Nc1ccc(/C=N/N2CCCCC2)cc1,x,4,-4,0.4,8%,
COc1ccc(CN2CCN(C(=O)Cc3ccccc3)CC2)cc1Br,x,x,-1,-1.4,x,
CC1CCCN(CC(O)COc2ccc(Cl)cc2)C1 (stereo not given),-14,-6,7,-4.3,-1%,
O=C(NC1CCCC1)c1ccc(COc2ccccc2Br)o1,x,x,1,5.8,x,
O=C1C2C(C(=O)N1Cc1ccco1)C1C=CC2C12CC2 (stereo not given),-7,17,-4,-0.8,0%,
Cc1ccccc1C1C(C#N)=C2N=C(N)c3c(sc4c3CCCCC4)N2C2=C1C(=O)CCC2 (stereo not given),-29,-24,-2,22,0%,
COC(=O)c1oc2ccccc2c1NC(=O)c1ccccc1O,x,10,0,-2.6,7%,
O=[N+]([O-])c1ccc(N/N=C/c2cn(-c3ccccc3)nc2-c2ccccc2)cc1,-30,-13,83,-2.3,30%,
CC(C)CCNC(=O)[C@H](Cc1ccccc1)N1Cc2ccccc2C1=O,x,x,5,1.9,x,
COc1cc(CNCCN2CCOCC2)ccc1OCc1c(Cl)cccc1Cl,-4,-42,4,3.2,8%,
O=C(Nc1ccc2c(c1)OCO2)c1ccc2c(c1)OCO2,-8,-15,-11,2.4,1%,
CC(=O)c1cc(CN2CCC(N3CCC(C(=O)NC(C)C)CC3)CC2)cs1,x,-1,-6,0.3,-2%,
CCC(=O)c1ccc(N2CCN(C(=O)c3ccccc3F)CC2)c(F)c1,x,5,-2,0.9,11%,
CC1CN(C(=O)/C=C/c2cccc([N+](=O)[O-])c2)CC(C)O1 (stereo not given),-6,x,-8,-0.6,-2%,
CC1(C)SC2C(NC(=O)COc3ccccc3)C(=O)N2C1C(=O)O (stereo not given),x,-1,1&2,2.5,-8%,
Cc1sc2nc(-c3ccccc3)[nH]c(=O)c2c1-c1ccccc1,-42,-1,-4,0.3,-4%,
Cc1cc(C)nc(NS(=O)(=O)c2ccc(NS(=O)(=O)c3ccccc3)cc2)n1,-26,7,2,1.3,16%,
Cc1cc(C(N)=O)c2cc(Br)ccc2n1,1,5,-20,0.2,-1%,Arbovirus inh repeat=1
Cc1c(NC(=S)NNC(=O)CCC(=O)O)c(=O)n(-c2ccccc2)n1C,x,x,-5,-2.5,-4%,
COc1cc(/C=N/n2nnnc2N)ccc1OCC(N)=O,x,x,-2,-1.3,x,
# Continued.
SMILES,YopH inh,Arbovirus inh,Mtb bLac sens,RecA splice inh,Mtb H37Rv,others
O=C(NCc1ccco1)C1CCN(S(=O)(=O)N2CCC3(CC2)OCCO3)CC1,-6,11,-6,-1.7,-10%,
CCCc1nnc(NC(=O)CCC(=O)N2CCN(Cc3ccc(C)cc3C)CC2)s1,x,x,-2,-0.6,x,
O=C(/C=C/c1cccs1)Nc1cccc(NC(=O)/C=C/c2cccs2)n1,-38,-2,96,8.4,10µM*,
Cc1cc(C(=O)CN2C(=O)NC(C)(CC(C)C)C2=O)c(C)n1-c1ccc2c(c1)OCO2 (stereo not given),-7,-12,x,1.7,36%,
Cc1cc(C)n(-c2ccc(Cl)c(C(=O)NCc3ccccc3)n2)n1,x,-9,11,x,4%,
CCCCCc1ccc(C(=O)CCCC)c(=S)[nH]1,x,-2,3,2.6,-2%,
CC(C)[C@H](NC(=O)[C@@H]1Cc2ccccc2CN1)C(=O)Nc1ccc2c(c1)OCO2,x,x,-2,29,x,
CCOC(=O)N1CCC(NCCNC(=O)c2ccc(Cl)cc2)CC1,-14,3,-2,0.6,-3%,
Clc1cccc(C2Nc3cccc4cccc(c34)N2)c1,x,x,4,14,x,
CCOC(=O)CCc1nc2ccccc2[nH]1,-4,2,2,4.9,-1%,
COCC(C)n1c(SCC(=O)N2CCc3ccccc3C2)nc2ccccc2c1=O (stereo not given),-39,18,-4,3.1,4%,
Cc1ccc(NC(=O)CSc2nncn2N)cc1C,x,x,-4,1.0,x,
O=C(N/N=C/c1ccncc1)c1ccccc1,-6,-2,-7,1.4,-1%,
Cc1ccccc1NC(=S)N(CCN1CCOCC1)Cc1ccccc1F,x,-5,-6,0.3,1%,
NC(=NCCc1ccccc1)NS(=O)(=O)c1ccc2ccccc2c1,-11,4,2,3.9,76%,
O=S(=O)(c1ccc(F)c(F)c1)N1CCN(c2ccccn2)CC1,x,x,-8,-3.1,x,
CC(C)c1ccc(OCC(=O)NC(C)c2ccccc2)cc1 (stereo not given),x,x,3,4.8,x,
COc1ccc(CP(=O)(c2ccccc2)c2ccccc2)cc1,x,x,-5,0.9,x,

# In the list so far, eleven have fluorine:
SMILES,YopH inh,Arbovirus inh,Mtb bLac sens,RecA splice inh,Mtb H37Rv,others
CCN(CC)CCN1C2=C(C(=O)CC(C)(C)C2)C(c2cccc(F)c2)C2=C1CC(C)(C)CC2=O,x,4,-6,-87,-3%,
CN1CCN(C(=O)COc2ccc(S(=O)(=O)Nc3ccc(F)cc3)cc2)CC1,x,x,7,1.9,x,
CC(=O)Nc1ccccc1C(=O)C(=O)Nc1ccc(F)cc1,-37,-1,1,-7.0,-9%,
O=S(=O)(c1ccc(F)cc1)N1CCCc2ccccc21,x,x,4,2.3,x,
O=C1OCC2=C1C(c1ccccc1)CC(=O)N2c1ccc(F)cc1 (stereo not given),x,3,-11,1.9,-1%,
CCc1ccccc1N1CSC2=C(C#N)C(c3ccccc3F)CC(=O)N2C1 (stereo not given),7,12,2,8.8,28%,Arbovirus inh repeat=10
O=S(=O)(c1ccccc1)N(Cc1cccc(F)c1)c1ccccc1,x,x,-3,1.6,x,
O=C(CNC(=O)c1cccc(F)c1)N/N=C/c1ccc([N+](=O)[O-])s1,x,-15,100,-2.9,u,
CCC(=O)c1ccc(N2CCN(C(=O)c3ccccc3F)CC2)c(F)c1,x,5,-2,0.9,11%,
Cc1ccccc1NC(=S)N(CCN1CCOCC1)Cc1ccccc1F,x,-5,-6,0.3,1%,
O=S(=O)(c1ccc(F)c(F)c1)N1CCN(c2ccccn2)CC1,x,x,-8,-3.1,x,

# Some of the compounds tested (hit frequency here may not be typical).
